# Screening data: PubChem, several laboratories
# Mtb growth: M. tuberculosis H37Rv growth inhibitors, H37Rv strain (AID 1626); M. tuberculosis H37Rv growth inhibition; higher % means a stronger effect; one-dose inhibition, % at 10 µM; IC50 in µM for titrated hits; 220,000 compounds, 0.95% hits;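 active = confirmed in a dose series; inconclusive = inhibition above 80% but not taken into the dose series; inactive = below 80% or under 30% at every dose of the series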;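 note: bacteria incubated seven days before Alamar blue readout; 0% = bacteria only wells and 100% = bacteria with antibiotic wells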
# Mtb bLac sens: beta-lactam sensitization of Mtb H37Rv; 330,000 compounds, 0.27% hits; inhibition, % at 25 µM; M. tuberculosis H37Rv growth with meropenem, percent inhibition; hits of this screen are not shown here; AID 434955;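 active = about 74% or more and at least 40 points above the plate without the antibiotic, then above 30% in a dose series; inconclusive = first-round hits that could not be retested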;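 note: growth measured after seven days incubation then overnight dye step; 0% = bacteria only wells and 100% = bacteria with antibiotic; twin plates without the antibiotic show which effects depend on it; some results filed as inactive read as strong as hits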
# YopH inh: blocks Yersinia enterocolitica YopH tyrosine phosphatase; fluorescence Ex485/Em525; inhibition, %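 (about 10 µM by stock and volumes)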; 140,000 compounds, 0.16% hits; AID 898;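 active = inhibition of 50% or more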;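 note: controls were vehicle for no effect and minimum signal wells for full effect; inactives centre near -20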
# Arbovirus anti: arbovirus infection inhibition; arbovirus infection cell-based antiviral screen; inhibition, % at 10 µM; 200,000 compounds, 0.37% hits;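 active = inhibition from about 30%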;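 note: bluetongue infection of BSR cells; cell survival read as ATP light after 72 h; 0% = infected wells without compound and 100% = uninfected wells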
# RecA intein inh: blocks M. tuberculosis RecA intein splicing | 290,000 compounds, 0.75% hits | cell-free RecA intein splicing, fluorescence | P9WHJ3 | AID 2221 | inhibition, %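 (about 9 µM by stock and volumes)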; in the data active = inhibition above about 30%; inconclusive = no clear call, values can overlap the other calls;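 note: 0% = vehicle wells and 100% = reference inhibitor control wells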
# Target sequence (P9WHJ3 whole entry, looked up): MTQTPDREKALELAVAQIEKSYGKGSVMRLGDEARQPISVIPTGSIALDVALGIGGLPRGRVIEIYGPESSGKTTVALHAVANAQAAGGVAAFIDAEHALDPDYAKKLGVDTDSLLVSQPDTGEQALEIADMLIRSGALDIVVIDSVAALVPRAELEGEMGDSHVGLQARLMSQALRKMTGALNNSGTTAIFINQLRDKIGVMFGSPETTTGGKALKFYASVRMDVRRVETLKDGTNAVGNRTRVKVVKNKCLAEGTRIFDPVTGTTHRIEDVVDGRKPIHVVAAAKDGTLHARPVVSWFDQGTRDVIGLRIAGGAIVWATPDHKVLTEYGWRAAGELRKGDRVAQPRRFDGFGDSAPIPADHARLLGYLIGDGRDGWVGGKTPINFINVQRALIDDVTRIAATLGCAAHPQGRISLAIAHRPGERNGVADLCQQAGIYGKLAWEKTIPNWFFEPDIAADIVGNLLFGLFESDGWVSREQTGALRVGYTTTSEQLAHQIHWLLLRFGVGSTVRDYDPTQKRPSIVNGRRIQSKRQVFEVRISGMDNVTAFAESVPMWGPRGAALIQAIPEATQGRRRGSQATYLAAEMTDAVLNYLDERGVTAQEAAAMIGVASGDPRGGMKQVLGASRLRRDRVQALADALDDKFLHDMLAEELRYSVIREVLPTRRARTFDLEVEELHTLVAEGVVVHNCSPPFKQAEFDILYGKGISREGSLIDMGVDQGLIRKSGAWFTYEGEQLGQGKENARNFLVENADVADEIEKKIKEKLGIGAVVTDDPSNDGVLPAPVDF
# Arbovirus anti repeat: second read-out of Arbovirus anti, no call of its own (marks repeat the call); inhibition, %; measured here: 10K subset replicate screen; many hits read low in the repeat;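 first of two repeat runs on a subset; 0% = infected and 100% = uninfected wells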
# Numbers without * were called inactive; ? = inconclusive; · = not tested or not shown. An excerpt; the hit share may differ from the screen's.
SMILES,Mtb growth,Mtb bLac sens,YopH inh,Arbovirus anti,RecA intein inh,others
COc1ccc(-n2nc3c(c2NC(=O)c2c(F)cccc2Cl)CS(=O)C3)cc1 (stereo unspecified),2%,-4,-44,3,-0.1,
NC(=O)c1ccc(-n2c(CCC(=O)O)ccc2-c2cccs2)cc1,3%,1,·,9,-0.9,
Cc1ccc(CS(=O)Cc2ccc(C(=O)N3CCOCC3)o2)cc1 (stereo unspecified),·,6,·,·,-3.4,
CCCCC1C2=C(CCCC2=O)OC2=C1C(=O)CCC2,·,-1,-12,12,-0.3,
COC(=O)CCC(=O)NNC(=O)c1ccc(Cl)cc1Cl,-6%,-5,-16,14,-0.8,
CCN(CC)S(=O)(=O)c1ccc(N(C)Cc2cccc(OC)c2OC)nc1,3%,8,·,8,0.5,
COc1ccccc1N1CCN(C(=O)CNC(=O)c2ccc(Cl)cc2Cl)CC1,·,0,·,·,-2.1,
CC(C)CC1NC(=O)N(CC(=O)NC2CCCc3ccccc32)C1=O (stereo unspecified),-2%,-9,·,10,2.7,
COc1ccc(-c2cncnc2-c2ccc(OC)cc2O)cc1,·,7,·,·,-2.7,
S=c1[nH]nc(Cc2cccs2)n1-c1ccccc1,·,4,-36,7,2.4,
Cc1ccc(CSc2nc3c(c(=O)[nH]c(=O)n3C)n2CCC(C)C)cc1,8%,0,-33,6,2.3,Arbovirus anti repeat=-7
O=C(c1ccccn1)N(Cc1ccco1)C1(C(=O)NC2CCCC2)CCCCC1,-4%,2,10,2,-1.5,
O=C(COC(=O)c1c2c(nc3ccccc13)/C(=C/c1cccc([N+](=O)[O-])c1)CCC2)NC1CCS(=O)(=O)C1 (stereo unspecified),7µM*,94,-25,-33,20,
Cc1c(CCOC(=O)CC23CC4CC(CC(C4)C2)C3)sc[n+]1Cc1ccccc1,-2%,84,-13,-13,0.1,
CCCCN(C(=O)c1ccc2c(c1)OCO2)c1c(N)n(CCCC)c(=O)[nH]c1=O,·,-5,·,·,0.7,

# The final five compounds of the section before lead into the next.
SMILES,Mtb growth,Mtb bLac sens,YopH inh,Arbovirus anti,RecA intein inh,others
Cc1ccc(CSc2nc3c(c(=O)[nH]c(=O)n3C)n2CCC(C)C)cc1,8%,0,-33,6,2.3,Arbovirus anti repeat=-7
O=C(c1ccccn1)N(Cc1ccco1)C1(C(=O)NC2CCCC2)CCCCC1,-4%,2,10,2,-1.5,
O=C(COC(=O)c1c2c(nc3ccccc13)/C(=C/c1cccc([N+](=O)[O-])c1)CCC2)NC1CCS(=O)(=O)C1 (stereo unspecified),7µM*,94,-25,-33,20,
Cc1c(CCOC(=O)CC23CC4CC(CC(C4)C2)C3)sc[n+]1Cc1ccccc1,-2%,84,-13,-13,0.1,
CCCCN(C(=O)c1ccc2c(c1)OCO2)c1c(N)n(CCCC)c(=O)[nH]c1=O,·,-5,·,·,0.7,
Oc1ccc2oc3c(c2c1/C=N/n1cnnc1)CCCC3,1%,7,-49,-10,-0.8,
COc1ccc(NC(=S)N2CCN(c3ncccn3)CC2)cc1,-1%,-11,·,-1,0.2,
Cc1cc(F)ccc1S(=O)(=O)Nc1ccc(O)c(Sc2ncn[nH]2)c1,·,0,·,·,-7.4,
Cc1nn(C)c(C)c1CN(C)C(=O)C1c2ccccc2Oc2ccccc21,-8%,0,-38,-4,·,
CN(Cc1cn(Cc2ccccc2)nc1-c1ccc2c(c1)OCO2)Cc1nccn1C,2%,9,·,-1,1.3,
CC(=O)C[C@H]1c2ccccc2S(=O)(=O)N1C1CCCCC1,-3%,7,·,·,1.0,
Cc1c(NC(=O)C(C)Sc2ccc3ccccc3n2)c(=O)n(-c2ccccc2)n1C (stereo unspecified),-6%,-8,-15,-2,2.4,
Cc1nn2c(=O)c(NC(=O)c3ccc(Cl)cc3)cnc2s1,1%,3,·,-1,0.4,
COc1ccc(C(=O)CCc2ccccc2)cc1,·,9,·,·,-1.6,
c1cncc(-c2nc3ccccc3o2)c1,-15%,-7,-39,-1,-0.6,
Cc1ccc(CNC(=O)c2cc(=O)c3cc(C)ccc3o2)cc1,·,9,·,·,-2.4,
CCOC(=O)CNC(=O)c1cn(CC(C)C)c(=O)c2cc(OC)c(OC)cc12,-5%,3,-80,13,2.7,Arbovirus anti repeat=2
COc1cc(C(=O)N2CCN(c3ccccc3OC)CC2)c([N+](=O)[O-])cc1OC,2%,-2,·,-5,-3.0,
Cc1cc(C)n(-c2nc3c(c(=O)n(C)c(=O)n3C)n2CCO)n1,0%,2,·,3,1.7,
COc1cccc(CCC(=O)N2CCC(n3nccc3NC(=O)C3CCOC3)CC2)c1 (stereo unspecified),·,3,·,·,11,
c1ccc2c(c1)c1c3n2CCNC3CCC1 (stereo unspecified),4%,17,-4,-1,-1.7,
C(=N\c1nccs1)/c1cccnc1,0%,3,8,5,-0.9,Arbovirus anti repeat=-1
COc1ccc(C2CC(=O)C(C=NCCO)=C(O)C2)cc1OC (stereo unspecified),-9%,0,10,23,7.3,Arbovirus anti repeat=8
N#Cc1c(N)nc(SCC(=O)C23CC4CC(CC(C4)C2)C3)c(C#N)c1-c1ccc(Cl)cc1,1%,46,-7,-14,-4.1,
COc1ccc(-n2c(CN3CCN(c4ccccn4)CC3)nc3ccc([N+](=O)[O-])cc3c2=O)c(OC)c1,6%,-6,·,7,-3.8,
O=C(O)c1cc(C2CC2)nn1-c1ccccc1,-8%,13,-35,-3,-2.1,
CCCC(c1nnnn1CCOC)N(Cc1cc2cc(C)c(C)cc2[nH]c1=O)CC1CCCO1 (stereo unspecified),·,4,-6,4,-6.2,
Cc1ccc(N(CC2CO2)S(=O)(=O)c2ccc([N+](=O)[O-])cc2)cc1 (stereo unspecified),·,-8,·,·,14,
CCCCOc1ccc(Nc2cc(Cl)ccc2C(=O)O)cn1,-7%,1,·,·,4.8,
C=CCNC(=O)N1CCC(n2nccc2NC(=O)CCCc2ccccc2)CC1,·,5,·,·,2.1,
CC(C)[C@@H](N)C(=O)N/N=C/c1ccc2nccnc2c1,-7%,-8,·,·,-3.2,
O=C1C=C(O)c2cccc3cccc1c23,·,6,·,·,-4.6,
Cc1ccc(N=Nc2c(C)[nH]n(-c3ccccc3)c2=O)c(C)c1,2%,-2,·,10,2.6,
CCC1(C(=O)c2ccccc2)C(c2cccc([N+](=O)[O-])c2)C1(C(=O)OC)C(=O)OC (stereo unspecified),1%,-10,-20,11,10,
O=c1c2cc3c(cc2[nH]c(=S)n1C1CCN(Cc2ccccc2)CC1)OCO3,5%,-3,·,2,9.8,
CNC(=S)N1CCc2cc(OC)c(OC)cc2C1COc1ccc(F)cc1 (stereo unspecified),1%,0,·,-1,1.7,
Cc1nnsc1C(=O)N1CCN(c2cc(C(F)(F)F)ccn2)CC1,-5%,0,·,·,1.0,
COc1ccc(OC)c(C(=O)N2CCC(n3nccc3NC(=O)CC(C)C)CC2)c1,·,-4,·,·,-6.9,
O=C(NCC1CCCO1)c1onc(CSc2ccccc2F)c1C(=O)O (stereo unspecified),-2%,2,6,23,0.4,
C=CCN(Cc1nc(-c2cc(OC)c3c(c2)OCO3)oc1C)C1CCS(=O)(=O)C1 (stereo unspecified),0%,-4,·,-3,·,
O=C(NCCOc1nc(N2CCCCC2)nc(N2CCOCC2)n1)Nc1ccccc1,3%,-4,18,5,-0.6,
COc1cc(-c2nn3c(-c4ccccn4)nnc3s2)cc(OC)c1OC,-8%,·,-44,-3,-4.5,
CCCCCc1nc2c(c(=O)c3ccccc3n2C)c(=O)n1Cc1ccc(OC)cc1,44%,25,·,·,-0.6,
COc1cc(C(=O)Nc2ccc([N+](=O)[O-])cn2)cc(OC)c1OC,-3%,2,-34,0,0.4,
CCOc1ccc(C(=O)NCC2OCCc3ccccc32)cc1 (stereo unspecified),1%,-5,-11,3,3.7,
COc1cccc(N2CCN(S(=O)(=O)c3ccc(-c4coc(C)n4)cc3)CC2)c1,·,5,·,·,-1.0,
CCN(Cc1ccncc1)C(=O)c1ccco1,·,-7,·,·,-0.8,
Cc1cccc(N2C(=O)/C(=C/c3ccccn3)SC2=S)c1,-2%,-1,·,·,-0.3,
Cc1cc(C)nc(SCC(=O)Nc2ncc3c(n2)CC(C)(C)CC3=O)n1,-1%,-2,-27,7,·,
Cn1c(=O)oc2cc(S(=O)(=O)NCc3ccncc3)ccc21,-5%,-2,-7,-1,0.1,
COCCNC(=O)C/C(C)=N/NC(=O)C(=O)NC1CCCCC1,-10%,-8,·,6,0.5,
CCOc1cc(/C=C/C(=O)O)ccc1OCCOc1ccc(F)cc1,·,3,·,·,-1.8,
CC(=O)c1cnn(-c2ccccc2)c1C,0%,6,·,14,-1.3,
COc1ccc(C(=O)Nc2ccccc2C(=O)NCc2ccco2)cc1,·,4,·,·,-0.4,
C=C1CCN([C@@H](C)C(=O)OCc2ccc(C)cc2)S(=O)(=O)c2ccccc21,-3%,-11,·,·,7.5,
COC(=O)C1C/C(=N\NS(=O)(=O)c2ccc(C)cc2)c2ccsc2C1 (stereo unspecified),1%,-11,-39,9,-2.5,
CCOCC(=O)Nc1cccc(SC)c1,51%,0,·,0,-0.3,
CCOc1ccc(NC(=O)c2c(NC(=O)CNCCN3CCOCC3)sc3c2CCC3)cc1,·,?,·,·,1.3,
CCOc1ccc(C(=O)Nc2ccc(N3CCN(S(C)(=O)=O)CC3)cc2)cc1[N+](=O)[O-],-3%,7,·,5,-1.4,
O=C(c1ccncc1)N1CCN(C(=O)c2ccco2)CC1,-1%,-1,-60,-3,-2.4,
COc1ccc(CNC(=O)CN2CCN(c3cccc(C)c3C)CC2)cc1,·,-2,·,·,15,
CC(C)n1cnc2cc(NC(=O)c3ccco3)ccc21,·,5,·,·,0.7,
CCC[N+](CC#Cc1ccccc1)(CCC)CC(=O)c1ccc(Cl)cc1,0%,2,-26,-8,3.3,
O=S(=O)(c1ccc(Br)s1)N1CCN(c2ccnc3cc(Cl)ccc23)CC1,17%,16,·,·,8.3,
CC(C)COC(=O)c1ccc(N2C(=O)c3ccccc3C2=O)cc1,-2%,-2,·,1,-0.8,

# Three entries out of the list, ordered by molar mass, ascending:
SMILES,Mtb growth,Mtb bLac sens,YopH inh,Arbovirus anti,RecA intein inh,others
CC(C)COC(=O)c1ccc(N2C(=O)c3ccccc3C2=O)cc1,-2%,-2,·,1,-0.8,
CCOc1cc(/C=C/C(=O)O)ccc1OCCOc1ccc(F)cc1,·,3,·,·,-1.8,
COc1ccc(C(=O)Nc2ccccc2C(=O)NCc2ccco2)cc1,·,4,·,·,-0.4,

# Continued:
SMILES,Mtb growth,Mtb bLac sens,YopH inh,Arbovirus anti,RecA intein inh,others
Cc1ccc(-n2c(N)c(C(N)=O)sc2=S)c(C)c1,·,33,-44,2,0.8,
CCNC(=S)N(CCc1c(C)[nH]c2ccc(C)cc12)Cc1ccco1,·,5,-12,-6,8.3,
CN(C(=O)CCS(=O)(=O)c1ccc2c(c1)oc(=O)n2C)C1CCCCC1,·,6,·,·,-3.4,
O=C(NCN1CCN(CCO)CC1)c1cnccn1,4%,-12,4,-10,0.1,
Cc1ccc(S(=O)(=O)N2CCC(=O)N(C(COCc3cccc(C)c3)Cc3ccccc3)CC2)cc1 (stereo unspecified),7%,10,-22,-11,7.9,
O=C(CCCn1ncn2c(cc3occc32)c1=O)N1CCc2ccccc2C1,-5%,-8,-33,-3,0.4,
CCOC(=O)c1ccc(NC(=O)CC2Sc3ncnn3C2=O)cc1 (stereo unspecified),-3%,-1,-62,13,·,
N#Cc1ccccc1NS(=O)(=O)c1cc2c3c(c1)CCC(=O)N3CCC2,·,-14,·,·,1.4,
O=C(COc1ccccc1)Nc1ccc(Cl)c(-c2nc3ncccc3o2)c1,4%,14,5,-2,·,
O=C(CCCN1C(=O)/C(=C/c2ccccc2Cl)SC1=S)NNC(=O)c1ccccc1,1%,17,-34,5,0.2,
O=C(Cc1nc2ccccc2[nH]1)NCc1ccco1,-6%,38,-31,7,-0.4,
Cc1cccc(Nc2ncnc(N)n2)c1,1%,3,·,1,-1.5,
CN(C)C(=O)N1CCN(C(=O)N2CCOCC2)CC1,-3%,-6,-13,8,-2.2,
COc1ccc(Cl)cc1N1C(=O)CC(N2CCc3ccccc32)C1=O (stereo unspecified),-1%,-7,-3,2,-0.5,
CC(=O)N1CCCc2cc(S(=O)(=O)N3CCCC(C(=O)Nc4cccc(F)c4)C3)ccc21 (stereo unspecified),·,-2,·,·,1.2,
COC(=O)C1CCN(C(=O)COc2cc3sc(C)nc3c3sccc23)CC1,-6%,8,-19,2,1.6,
CC(=O)c1c(Cl)nc2ccc(Br)cc2c1-c1ccccc1,·,1,·,·,2.4,
O=C(COc1cccc2cccnc12)NCc1cccs1,15%,-4,·,29,-1.6,
Cc1ccccc1C(=O)NCCCNC(=O)c1ccco1,·,0,·,·,0.3,
O=C(N/N=C/c1ccccc1O)C1SCCCS1,3%,?,·,5,-5.7,
